# Screening data: PubChem BioAssay, National Center for Advancing Translational Sciences (NCATS)
# Sfp PPTase inh: blocks B. subtilis Sfp PPTase activity | Q9F4F7 | Biochemical Sfp PPTase activity, qHTS | Potency, µM, without a hit: max response, negative = inhibition, most hits filed as inhibitors | hit rate 3.5% among 310,000 | AID 1490; active means well fitted inhibition curve with a large enough effect; inconclusive means small, poorly fitted or top-dose-only effect, or another doubt; inactive means no such curve, though single readings can be large or run the other way;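 further: the enzyme is Sfp with the accession as filed and its product quenches rhodamine fluorescence; potency means the concentration at half of the fitted maximal effect; 0% = enzyme reaction without inhibitor and -100% = no enzyme wells; top concentration of the series not given in the record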
#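 Buffer: 50 mM Hepes-Na pH 7.6, 10 mM MgCl2, 0.01% Nonidet P-40, 0.01% BSA. Enzyme 15 nM, pre-exposed to compound 15 min; substrates then added and fluorescence change tracked over 30 min.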
# ClpP mod: qHTS Assay for Activators of ClpP; ATP-dependent Clp protease proteolytic subunit (Bacillus subtilis (strain 168)), P80244; purified B. subtilis ClpP, FRET peptide cleavage, 20 min; Potency, µM (series often up to 57.5 µM), without a hit: top-dose activity change, negative = active; hit rate 1.9% among 340,000; AID 651965, 2013; active = well fitted falling curve with a large enough effect; inconclusive = small, poorly fitted or top-dose-only effect; inactive = no such curve, though single readings can be large or run the other way; further: potency means the concentration at half of the fitted maximal effect; the source files actives as falling curves though it sought activators and does not explain the sign; nearly all actives have a fitted effect of over 65% in size; many hits overshoot -100%
# Target sequence (P80244 whole entry, looked up): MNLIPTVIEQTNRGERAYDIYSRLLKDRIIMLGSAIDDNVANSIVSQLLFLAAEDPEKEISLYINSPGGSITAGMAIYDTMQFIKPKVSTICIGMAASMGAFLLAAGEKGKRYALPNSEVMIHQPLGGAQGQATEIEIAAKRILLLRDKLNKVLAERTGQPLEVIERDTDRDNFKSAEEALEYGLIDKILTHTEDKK
#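 ClpP 10 microg/mL final, pH 8 Tris/KCl buffer with BSA, glycerol, Tween-20; compound pinned in; FRET-FV substrate; RT 20 min; Ex320/Em430; ΔFRET vs ADEP 5.8 microM, DMSO, no enzyme.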
# CtBP-E1A blk: inhibitors of CtBP/E1A interaction; AlphaScreen GST-E1A/His-CtBP binding, 1536-well; hits give low values; control for the full effect not named in the record; activity change, % (test concentration not listed); hit rate 0.49% among 340,000; in the data active means activity change below about -65%; inconclusive means about -30% to -65%; inactive means above about -30%; further: on the % scale 0 is the no-effect control and ±100 the full control effect; compound concentration not given in the record
#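 Protein mix (5X: 125 nM each GST-E1A, His-CtBP) was incubated with pinned compound 2 h at 37 deg C in dark, in 50 mM Tris pH 8.0 buffer with 300 mM NaCl. Glutathione donor and nickel acceptor beads followed; AlphaScreen signal read after 1 h.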
# gsp ag: gsp mutant agonism | gsp mutant cells, cAMP HTRF, 30 min; control for the full effect not named in the record | AID 624287 | hit rate 0.13% among 340,000 | Potency, µM (highest dose often 76.9 µM), for the others: at the top dose activation (cAMP increase), usual class: activators; active = well fitted activation curve with a large enough effect; inconclusive = small, poorly fitted or top-dose-only effect, or another doubt; inactive = no such curve, though single readings can be large or run the other way; cell line not stated here;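 further: phosphodiesterase inhibitor Ro 20-1724 added with compounds to block cAMP breakdown; potency means the concentration at half of the fitted maximal effect; nearly all actives have a fitted effect of over 60% in size; about a fifth of the inactives were tested at one dose only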
#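 Cells in DMEM/10% FBS with G418 were pretreated with compounds in DMSO plus […] (300 uM stock) for 30 min at 37C. cAMP was measured by HTRF (cAMP-d2 plus anti-cAMP antibody-K) after 30 min at room temperature.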
# Menin-MLL FL inh: menin-MLL binding inhibition, fluorescein peptide; FP activity change, % at 61.4 µM; Fluorescence polarization, fluorescein-MLL peptide displacement from menin; 290,000 tested, under 10 active; AID 1766; inconclusive = falling polarisation curve, or a change in total fluorescence; inactive = total fluorescence flat and polarisation flat or rising; no compound was filed as active; the % refers to the polarisation; negative = inhibition;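 further: % of control where 0% means no effect; inhibitors lower the polarisation; unlabelled MLL peptide was the positive control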
# gsp antagonist: gsp mutant antagonism; gsp-mutant cells, cAMP HTRF, 30 min; control for the full effect not named in the record; Potency, µM (titrated, usually from 76.9 µM), for inactives: top-dose activity change, negative = inhibition, usual class: inhibitors; hit rate 0.4% among 340,000; AID 624288; active = falling curve of any shape with a large fitted effect; inconclusive = falling curve, mostly with a smaller effect; inactive = flat or rising curve; cell line not stated here;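 further: intracellular cAMP measured with PDE inhibitor Ro 20-1724 present during compound exposure; potency means the concentration at half of the fitted maximal effect; on the % scale 0 is the no-effect control and ±100 the full control effect; nearly all actives have a fitted effect of over 65% in size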
#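 Measurement of cellular cAMP by homogeneous time-resolved fluorescence following a 30 min compound exposure at 37C. The PDE inhibitor […] was present throughout; the assay buffer was DPBS with 0.05% BSA and 0.005% Tween 20.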
# TRPV1 PAM: potentiators of human vanilloid receptor 1 (TRPV1); hit rate 0.02% among 320,000; TRPV1-expressing cells, Fluo-8 calcium influx, capsaicin EC20 potentiation; host cell line not named in the record; control for the full effect not named in the record; potentiation, % at 8.33 µM; AID 540277; active means potentiation above 80%; inconclusive means 30% to 80%; inactive means below 30%; further: 0% is about no effect
# Target sequence (Q8NER1 whole entry, looked up): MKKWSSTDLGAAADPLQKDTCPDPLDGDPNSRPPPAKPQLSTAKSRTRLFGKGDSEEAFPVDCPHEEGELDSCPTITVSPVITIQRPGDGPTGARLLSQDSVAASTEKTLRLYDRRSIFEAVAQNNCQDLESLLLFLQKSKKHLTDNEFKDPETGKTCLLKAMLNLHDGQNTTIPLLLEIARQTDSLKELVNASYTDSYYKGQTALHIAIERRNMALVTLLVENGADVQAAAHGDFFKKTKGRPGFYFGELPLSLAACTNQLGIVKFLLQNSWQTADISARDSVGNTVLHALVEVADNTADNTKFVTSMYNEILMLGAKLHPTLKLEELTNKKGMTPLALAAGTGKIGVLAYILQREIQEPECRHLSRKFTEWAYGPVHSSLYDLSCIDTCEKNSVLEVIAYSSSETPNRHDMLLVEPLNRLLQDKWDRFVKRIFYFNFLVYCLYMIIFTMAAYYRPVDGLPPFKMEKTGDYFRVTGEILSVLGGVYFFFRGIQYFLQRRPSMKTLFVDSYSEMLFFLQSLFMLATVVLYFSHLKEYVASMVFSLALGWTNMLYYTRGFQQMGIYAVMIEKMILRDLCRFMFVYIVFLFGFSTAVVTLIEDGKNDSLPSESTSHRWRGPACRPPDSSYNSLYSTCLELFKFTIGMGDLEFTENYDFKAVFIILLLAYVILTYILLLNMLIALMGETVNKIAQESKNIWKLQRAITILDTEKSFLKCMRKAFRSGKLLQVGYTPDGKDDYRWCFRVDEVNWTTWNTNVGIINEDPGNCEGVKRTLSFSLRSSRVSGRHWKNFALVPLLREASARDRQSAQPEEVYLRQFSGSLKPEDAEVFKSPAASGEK
#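 TRPV1-expressing cells were cultured overnight at 35.5C and loaded with Fluo-8 calcium dye for 40 to 90 min at room temperature. After a 10 s baseline, compound was added and calcium influx was read kinetically for 3 min (ex 480/em 520 nm).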
# An asterisk follows results filed as active; ? = inconclusive; · = no result given; [ ] = dose if it differs, or a comment.
# Order of values: Sfp PPTase inh	ClpP mod	CtBP-E1A blk	gsp ag	Menin-MLL FL inh	gsp antagonist	TRPV1 PAM
Cc1nc2cc(NC(=O)N3c4ccccc4CC3C)ccc2o1 (stereo not drawn)
→ 12%	-1.1%	2	?	2.5	4%	3
Cc1cc(=O)[nH]c(SCC(=O)NCC2CCCCC2)c1C#N
→ 9%	·	9	-29%	2.7	-7%	0
CCn1cc(S(=O)(=O)N2CCN(c3ccc(Cl)cc3)CC2)cn1
→ 6%	0.7%	3	-8%	·	11%	-9
Cc1ccc(S(=O)(=O)N2CCN(C(=O)C3=COCCO3)CC2)cc1C
→ 14%	?	-7	-3%	-0.2	-4%	-5
Cn1c(Cc2ccccc2)nnc1SCc1cc(=O)n2ccsc2n1
→ 5%	0.5%	9	-1%[15.4 µM]	-2.0	8%	5
O=C(CSc1ccccc1)N1CCN(S(=O)(=O)c2cccs2)CC1
→ 0%	-2.6%	-22	0%	·	6%	-4
CC(C)(CO)CNC(=O)CCc1nnc(C2(c3ccc(Cl)cc3)CCC2)o1
→ 14%	-1.0%	·	-39%[inhibitor]	-1.2	-3%	-11
COc1cc2c(cc1NC(=O)C(C)NCc1ccccc1)oc1ccccc12 (stereo not drawn)
→ 14%	-27%	27	-16%	0.7	?	-10
Cc1cccc(N2CCN(C(=O)Cn3sc4nc(C)cc(C)c4c3=O)CC2C)c1 (stereo not drawn)
→ 3.5µM*	-12%	3	-40%[inhibitor]	?	-22%	23
COC(=O)CSc1[nH]c(=O)cc(C)c1C#N
→ 10%	0.8%	7	0%	2.8	10%	1
CC[C@@H](NC(=O)Cn1cc(C)c(=O)[nH]c1=O)c1ccccc1
→ ·	-1.5%	-1	·	·	3%	·
Cc1occc1C(=O)NC(C)C1CCCO1 (stereo not drawn)
→ -6%	1.9%	1	-7%	-5.2	3%	-9
COc1ccc(N2CCN(C(=O)c3ccc4[nH]c(C)c(C)c4c3)CC2)cc1
→ 1%	-4.8%	·	-3%	-1.8	-1%	12
CCCn1cc([C@@H]2C[C@H]3CN(Cc4cccc(Cl)c4)C(=O)[C@]34CCCN24)c(C)n1
→ 18%	-1.8%	4	4%	1.8	6%	-12
CCc1ccccc1NC(=S)N(CCN(C)C)C(C)c1ccco1 (stereo not drawn)
→ 11%	·	6	0%[15.4 µM]	1.7	8%	7
O=C1c2ccccc2C(=O)C12OC2c1ccc(Cl)cc1Cl (stereo not drawn)
→ -13%	·	8	6%[15.4 µM]	-0.3	-10%	-14
Cc1c(S(=O)(=O)Nc2cccc3ccccc23)c(=O)n(C)c(=O)n1C
→ ·	-2.3%	4	7%	·	-4%	7
CC(=O)Nc1ccc2c(c1)nc1n2CCN(C2CCCCC2)C1
→ 8%	·	5	8%[15.4 µM]	-16	2%	-2
COc1cc(C(=O)NCC(c2ccco2)N2CCOCC2)cc(OC)c1OC (stereo not drawn)
→ ·	-1.4%	1	-8%	·	9%	-1
COc1cc2c(cc1O)CCN(C(=O)c1ccco1)C2C (stereo not drawn)
→ 18%	-0.6%	9	?	6.2	-1%	1
O=C(O)c1ccc(CN2C(=O)c3ccc(Oc4ccc([N+](=O)[O-])cc4)cc3C2=O)cc1
→ 7%	-3.7%	·	-5%	-3.6	-23%	9
Cc1noc(C)c1COC(=O)c1cc2ccccc2cc1O
→ -17%	-1.9%	10	-24%	2.4	-29%	-3
O=C1CCC(=O)N1c1ccc(NC2CCN(Cc3ccccc3)CC2)c([N+](=O)[O-])c1
→ 1%	-0.8%	·	-1%	-3.7	-2%	9
O=C(CCC1CCCN(C(=O)Cc2ccc(F)cc2)C1)N1CCN(c2ccccn2)CC1 (stereo not drawn)
→ 13%	-1.1%	-1	-4%[15.4 µM]	0.4	-3%	2
O=C(Nc1ccc(S(=O)(=O)N2CCCC2)cc1)C1CCCN1C(=O)c1cccs1 (stereo not drawn)
→ -10%	·	-6	-5%[15.4 µM]	3.9	-6%	18
Nc1nc(NCc2ccccc2)nc(NCc2ccccc2)c1[N+](=O)[O-]
→ 4%	-1.3%	0	?	3.7	-3%	19
COc1ccc(CC(=O)Nc2ccc3c(c2)CCC3)cc1
→ 6%	0.2%	3	8%	-0.1	2%	-8
S=C(NCc1cccnc1)Nc1cccc(Cl)c1
→ 6%	-1.2%	10	?	0.7	4%	7
O=C(CSCc1ccc(Cl)cc1)Nc1ccc(S(=O)(=O)N2CCOCC2)cc1
→ 8%	1.2%	-4	5%	5.1	-12%	-21
CNC(=O)C1=C(C)n2c(nc3ccccc32)NC1c1ccc(OC)cc1 (stereo not drawn)
→ 26%	-8.8%	0	-10%[15.4 µM]	3.0	3%	-2
CCOc1ccc2c(c1)n(CO)c(=S)n2CO
→ 1%	-0.3%	2	-33%[inhibitor]	3.0	-9%	-6
CN(C)S(=O)(=O)NC(c1ccccc1)c1ccccc1
→ 12%	-2.5%	4	-22%	-1.5	6%	-18
O=C(COc1ccc2c3c(c(=O)oc2c1)CCC3)NCc1ccncc1
→ 17%	4.0%	1	22%	·	-4%	-17
COc1ccccc1/C=C1\SC(=S)N(CCC(=O)N2CCCCC2CCO)C1=O (stereo not drawn)
→ -5%	0.3%	-6	0%	10	-18%	5
COc1ccc(CNC(=O)CN(C(=O)CCC(=O)Nc2nccs2)c2ccc(C)cc2)cc1
→ -14%	·	-3	12%[15.4 µM]	-2.2	4%	-1
Cc1nnc(SCc2ccc3c(c2)OCO3)s1
→ 17%	-1.4%	4	3%	2.8	7%	?
Cc1ccccc1N(CC(=O)NC(C)(C)C)C(=O)CCC(=O)Nc1nccs1
→ -3%	-1.2%	·	-2%	3.3	0%	3
CC(=NNC(=O)c1ccncc1)c1ccccc1O
→ ·	·	-75*	-7%	·	-1%	·
Cc1cc(S(=O)(=O)NC(C)C)ccc1OCC(=O)NCc1ccccc1
→ -9%	·	1	-20%[15.4 µM]	6.4	-9%	0
O=C(O)Cn1c2ccccc2c2n[nH]c(=S)nc21
→ 45µM*	·	-16	-5%	-0.2	2%	11
CC(=O)c1ccc(NC(=S)NCc2cccnc2)cc1
→ 14%	·	-13	-8%	0.5	5%	-3
COc1ccc(C(=S)N2CCNCC2)cc1
→ 9%	-0.6%	-2	-26%	-1.7	22%	-8
Cc1cccc2cc(CN(CC3CCCO3)C(=O)c3cccs3)c(=O)[nH]c12 (stereo not drawn)
→ 5%	-24%	1	19%	-2.3	-4%	2
O=C(O)CSc1nnc(-c2ccccc2Br)n1-c1cccc(C(F)(F)F)c1
→ 25%	0.4%	5	-51%[inhibitor]	0.9	-8%	2
C[C@H](CO)N1C[C@H](C)[C@H](CN(C)C(=O)c2ccccn2)Oc2ncc(Br)cc2C1=O
→ ·	1.2%	7	-30%[inhibitor]	·	·	·

# Reprinted at random: two entries already listed.
# Order of values: Sfp PPTase inh	ClpP mod	CtBP-E1A blk	gsp ag	Menin-MLL FL inh	gsp antagonist	TRPV1 PAM
COc1ccccc1/C=C1\SC(=S)N(CCC(=O)N2CCCCC2CCO)C1=O (stereo not drawn)
→ -5%	0.3%	-6	0%	10	-18%	5
O=C(O)Cn1c2ccccc2c2n[nH]c(=S)nc21
→ 45µM*	·	-16	-5%	-0.2	2%	11

# (list continues)
# Order of values: Sfp PPTase inh	ClpP mod	CtBP-E1A blk	gsp ag	Menin-MLL FL inh	gsp antagonist	TRPV1 PAM
CC1(C)CC(C(N)=S)CCO1 (stereo not drawn)
→ 6%	·	-11	29%[15.4 µM]	0.0	7%	·
Cc1cc(NC(=O)c2ccccc2)ncc1NC(=O)c1cccs1
→ -3%	0.4%	·	-1%	2.4	1%	-1
COc1ccc(OC)c(NC(=O)CSc2nc(N3CCOCC3)nc(N3CCOCC3)n2)c1
→ 5%	1.3%	5	12%	·	0%	-4
CCC(C)NS(=O)(=O)c1ccc(N)cc1 (stereo not drawn)
→ 22%	·	5	30%	-0.1	6%	1
C[C@]1(O)CC(=O)C=C[C@H]1Nc1ccccc1
→ ·	-0.5%	-28	·	·	9%	·
Cc1ccc(NC(=O)CCNS(=O)(=O)c2ccc3c(c2)CCC(=O)N3)cc1F
→ 12%	-1.9%	-19	-2%	-4.3	-6%	-1
Cn1cc(S(=O)(=O)N2CCc3ccccc32)cc1C(=O)NC1CCCCC1
→ 20%	-0.7%	4	2%	-2.1	-2%	-22
Cc1noc(C)c1C(=O)OCC(=O)/C=C1/N(C)c2ccccc2C1(C)C
→ ·	·	7	25%	·	7%	·
COc1cc(OC)c(OC)cc1CNc1cc(C)ccc1OC
→ -4%	-1.0%	?	4%	2.8	-13%	-6
COc1cc(CC(=O)OCc2ccccc2F)cc(OC)c1OC
→ 14%	·	13	19%	4.9	-3%	-5
COc1ccccc1C1CC(=O)NC(SCC(=O)Nc2ccccc2)=C1C#N (stereo not drawn)
→ 11%	-3.0%	-10	-2%	1.4	-2%	·
CCCCCC(=O)NN=C1CCN(Cc2ccccc2)CC1
→ 23%	-2.6%	10	18%	2.0	9%	10
COc1ccccc1NC(=O)C(C)OC(=O)CSCC(=O)Nc1ccc(C)cc1C (stereo not drawn)
→ ·	-0.3%	·	13%	·	-3%	-1
Cc1cc(C(F)(F)F)nc(CCNC(=O)C2CCC(=O)N(Cc3cccc(F)c3)C2)n1 (stereo not drawn)
→ 5%	-0.7%	-10	-38%	-3.4	5%	10
CCCCN(C(=O)CC1CCCC1)c1c(N)n(CCC)c(=O)[nH]c1=O
→ ·	-1.5%	·	?	·	14%	-21
CCOC(=O)/C(C#N)=C/c1c(N2CCN(CC)CC2)nc2c(C)cccn2c1=O
→ 8%	-1.5%	9	?	-14	-3%	-3
COc1cccc2c(=O)cc(C)n(CC(=O)Nc3ccc(Br)cc3)c12
→ 11%	·	6	6%	-0.9	5%	-3
Cc1nc2c(ncn2-c2ccccc2)c(=O)n1NC(=O)CN1CCN(C)CC1
→ 4%	·	6	-5%	-0.5	11%	-4
O=C(O)CCCCCN1C(=O)/C(=C/c2cn(-c3ccccc3)nc2-c2cccs2)SC1=S
→ ·	·	-17	?	·	35µM*	·
COc1ccc(C(=O)Nc2ccc(C3CC3(Cl)Cl)cc2)cc1 (stereo not drawn)
→ 22%	·	-9	-16%	-4.2	-2%	-4
